High-throughput results from PubChem BioAssay.
Insulin prom inh: TRM-6 insulin promoter activity inhibition. TRM-6 cells (human fetal islet line), insulin promoter-eGFP reporter, imaging; reporter expression induced with tamoxifen. inhibition, % at 2 µM. 130,000 tested, 0.9% active. AID 1273;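 active = inhibition above the mean plus 3 SD, with well images judged a real hit on visual review, cut at about 60% in these data, passing the limit was not always enough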
GALR2 agonist: GALR2 (human) receptor agonism; O43603; GALR2-expressing cells, agonist activation read-out; activation, %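 (tested at 5 µM)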; 140,000 tested, 0.48% active; AID 803;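 active = above mean plus 3 SD of all compounds, about 5% in these data, not always enough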;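 note: 0% = vehicle buffer wells and 100% = reference agonist at full effect; tested in CHO reporter cells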
Target sequence (O43603 whole entry, looked up): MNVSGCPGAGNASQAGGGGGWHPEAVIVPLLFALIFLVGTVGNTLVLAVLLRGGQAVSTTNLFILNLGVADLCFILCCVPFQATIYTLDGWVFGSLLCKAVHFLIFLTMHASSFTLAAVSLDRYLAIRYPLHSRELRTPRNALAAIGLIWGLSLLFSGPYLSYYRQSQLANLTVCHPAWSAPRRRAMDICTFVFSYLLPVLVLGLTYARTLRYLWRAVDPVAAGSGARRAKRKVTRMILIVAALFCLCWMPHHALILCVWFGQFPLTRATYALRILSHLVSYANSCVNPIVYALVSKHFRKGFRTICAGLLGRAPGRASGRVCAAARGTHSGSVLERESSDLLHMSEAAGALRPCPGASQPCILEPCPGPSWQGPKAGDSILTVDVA
HSV replic up: increases HSV replication in cells | HSV replication augmentation in cells, fold increase | maximum fold increase | 220,000 tested, 0.005% active | AID 1956;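 active = peak rise of 1.5-fold or more in the series; tested in PC3 cells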;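 note: first round at 10 µM; read as green reporter fluorescence; hits show the peak of a series up to 25 µM; 1 = signal of infected wells without compound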
PKD1 kinase inh: PKD1 (human) kinase inhibition; Q15139; PKD1 kinase fluorescence polarization assay; inhibition, %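 (about 10 µM by stock and volumes)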; 200,000 tested, 0.056% active; AID 797;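 active = inhibition of 50% or more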;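 note: controls were vehicle for no effect and a reference inhibitor for full effect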
RGS16-Gao HTS: regulators of human RGS16-Galphao interaction | bead-based flow cytometry RGS16-Galphao binding, fluorescence; actives lie on both sides | binding response (% of control), % at 10 µM | 220,000 tested, 0.38% active;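 active = below 25% or above 175%, edge rows of some plates excepted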;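 note: Galphao activated by GDP with aluminum fluoride before binding; 100% = wells without compound and 0% = beads without RGS; some results beyond the cut were filed as inactive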
Target sequence (O15492 whole entry, looked up): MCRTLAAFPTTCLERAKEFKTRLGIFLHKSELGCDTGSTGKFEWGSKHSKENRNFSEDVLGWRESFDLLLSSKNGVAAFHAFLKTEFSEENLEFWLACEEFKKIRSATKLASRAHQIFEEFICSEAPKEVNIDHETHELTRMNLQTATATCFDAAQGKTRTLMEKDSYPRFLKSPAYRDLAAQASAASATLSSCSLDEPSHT
Target sequence (P09471 whole entry, looked up): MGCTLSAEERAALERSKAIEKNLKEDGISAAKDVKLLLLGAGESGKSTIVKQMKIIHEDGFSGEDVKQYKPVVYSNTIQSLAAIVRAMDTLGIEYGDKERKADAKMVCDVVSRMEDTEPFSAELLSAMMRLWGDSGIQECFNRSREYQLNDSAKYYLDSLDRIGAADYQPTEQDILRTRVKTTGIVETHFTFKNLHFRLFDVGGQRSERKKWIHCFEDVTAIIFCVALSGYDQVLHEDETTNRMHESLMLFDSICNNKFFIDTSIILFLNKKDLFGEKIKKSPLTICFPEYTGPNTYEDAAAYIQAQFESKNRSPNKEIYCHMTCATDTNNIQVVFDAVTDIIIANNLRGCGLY
Insulin prom inh cell count: recorded beside Insulin prom inh, whose call it bears; normalized cell count, %; measured here: cell count, toxicity; reference of the scale not given here;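 cells exposed to compound for 48 h; stained nuclei by imaging scaled within each plate; lower means fewer cells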
HSV replic up primary fold: further read-out of HSV replic up, marked with its call; fold increase; compound at 10 µM; measured here: primary screen fold increase 10 uM; tested in PC3 cells;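 GFP signal in the first replicate; 1 = infected wells without compound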
The depositor's hits bear a star; i = inactive; . = not tested or not shown; & = joins results of further samples.

SMILES	Insulin prom inh	Insulin prom inh cell count	GALR2 agonist	HSV replic up	HSV replic up primary fold	PKD1 kinase inh	RGS16-Gao HTS
N#Cc1c2n(c3c(=O)n(Cc4ccccc4)cnc13)CCCC2	24	66	-3.3	i	1	-7	98
Cc1ccc2cc(C(=O)O)c(C)nc2c1	-3	134	-2.8	i	0.78	0	104
COC(=O)c1ccc(C(NC(=O)OCc2ccccc2)/C(F)=C/[C@@H](C)C(=O)NCc2ccc(OC)c(OC)c2)cc1 (stereo not given in full)	5	113	-0.4	i	1	-9	99
COc1ccc(CC(=O)O/N=C(\N)c2cccc([N+](=O)[O-])c2)cc1	.	.	-0.1	i	1.1	-5	107
CCOc1ccccc1NC(=O)C(OC(=O)c1ccc(CC)cc1)c1ccccc1 (stereo not given)	25	98	-0.8	i	0.97	8	111
CCC(NC(=O)C1(C)CC1(Br)Br)c1ccc(C)cc1 (stereo not given)	-59	66	-2.1	i	0.97	0	102
COc1ccc(CCn2c(=S)[nH]c3cc(C(=O)N4CCOCC4)ccc3c2=O)cc1OC	57	103	.	i	0.77	-6	104
CCCCCn1c(=NC(=O)c2ccco2)c(C(=O)OCC)cc2c(=O)n3ccccc3nc21	-42	111	4.3	.	.	7	102
CCOC(=O)C1=C(C)NC(C)=C(C(=O)OCC)C1	62	112	-2.5	i	0.79&1.1	-5	90&91
CC(=O)Nc1ccc2c(c1)CCCC2=O	.	.	.	i	1	.	93
CC(C)(C)NC(=O)C(c1ccncc1)N(Cc1ccco1)C(=O)c1ccc(-c2ccccc2)[nH]1 (stereo not given)	-33	111	.	i	0.94	0	99
Cc1cc(C)c([N+](=O)[O-])cc1NCC(=O)N1CCN(c2ccccc2)CC1	.	.	.	i	0.98	2	101
COC(=O)c1ccc2c(c1)N(C)S(=O)(=O)c1cnc(SCC(=O)C(C)(C)C)nc1-2	.	.	.	i	1	.	100
CCc1nnc(NC(=O)c2ccc(S(=O)(=O)N(C)c3ccccc3)cc2)o1	-36	128	.	i	0.93	-6	102
O=C(O)C1OC(Oc2c(-c3ccc(O)c(O)c3)oc3cc(O)cc(O)c3c2=O)C(O)C(O)C1O (stereo not given)	-100	107	-1.1	i	1.2	13	76
CCOc1cc(N2CCOCC2)c(OCC)cc1NC(=O)CSc1ncn[nH]1	.	.	.	i	0.96	-1	101
COc1ccc(NC(=O)c2cc3cccc(OC)c3oc2=Nc2ccc(C(=O)O)cc2)cc1OC	.	.	.	i	1	6	98
Cc1ccc(NS(=O)(=O)c2cc(-c3n[nH]c(=O)c4ccccc34)ccc2C)cc1	-52	101	0.8	i	0.71	2	110
Cc1cc(-c2cc(C(=O)O)c3ccccc3n2)c(C)s1	-6	62	.	i	0.96	-3	90
COc1ccc2[nH]c3c(N4CCN(Cc5ccc6c(c5)OCO6)CC4)ncnc3c2c1	.	.	-2.4	i	0.83	-3	123

Rewritten with two lines to a compound: 2 of the compounds above
Each structure is followed by: Insulin prom inh | Insulin prom inh cell count | GALR2 agonist | HSV replic up | HSV replic up primary fold | PKD1 kinase inh | RGS16-Gao HTS
CCOC(=O)C1=C(C)NC(C)=C(C(=O)OCC)C1
 : 62 | 112 | -2.5 | i | 0.79&1.1 | -5 | 90&91
CC(=O)Nc1ccc2c(c1)CCCC2=O
 : . | . | . | i | 1 | . | 93

The results go on.
SMILES	Insulin prom inh	Insulin prom inh cell count	GALR2 agonist	HSV replic up	HSV replic up primary fold	PKD1 kinase inh	RGS16-Gao HTS
O=S(=O)(Nc1nc2ccccc2nc1NCC1CCCO1)c1cccc(Cl)c1 (stereo not given)	.	.	.	i	0.99	.	99
O=c1c2ccccc2cnn1-c1ccc2ccccc2c1	11	102	-1.1	i	1.1	-7	101
CC(C)OC(=O)CSc1nnc(-c2ccncc2)n1N	55	173	-1.7	i	1.1	-12	100
CCOC(=O)C1=CN(c2cccc(F)c2)C=C(C(=O)OCC)C1c1cc(OC)c(O)c([N+](=O)[O-])c1	0	118	-2.5	i	0.81	-3	104
CCOc1ccc(S(=O)(=O)N(CC)CC)cc1NS(=O)(=O)c1ccc(F)c(F)c1F	22	101	0.1	i	0.96	-6	104
CCC(C)NC(=O)c1ccccc1-c1nc2ccccc2[nH]1 (stereo not given)	-79	106	.	i	0.94	3	98
C/C(=N\NC(=O)c1ccccc1)c1ccc(-n2ccnc2)cc1	9	99	0.1	i	1	-4	101
CCOC(=O)c1c(N)sc(C(=O)Nc2ccccc2F)c1C	.	.	.	i	0.8	3	134
COc1cccc(C(=O)N2CCC(N3CC(C)OC(C)C3)CC2)c1 (stereo not given)	-50	58	0.1	.	.	-9	112
CSc1nc2cc(S(=O)(=O)N3CCOCC3)ccc2s1	-25	89	-1.0	i	0.98	-5	132
Cc1cc(C)nc(SCc2nnc(SCC(=O)Nc3ccc(C)c(C)c3)n2Cc2ccco2)n1	-6	131	0.2	i	0.8	5	60
Cc1ccc(C(=O)Nc2ccc(Br)c(C(F)(F)F)c2)cc1	0	88	-2.2	i	0.63	10	101
CCCCOC(=O)c1nc[nH]c1C(=O)OCCCC	.	.	.	i	0.92	-3	105
NC(=O)c1c(N)sc(=S)n1CC1CCCO1 (stereo not given)	-17	84	-0.8	i	0.91	-1	99
CCOC(=O)c1c(NC(=O)Cn2cnc([N+](=O)[O-])n2)sc2c1CCCC2	23	117	-0.1	i	0.73	-11	91
CCC(=O)Nc1c(C)nn(C(=O)CC)c1C	.	.	-2.2	i	0.94	-9	68
Cc1[nH]c2ccccc2c1C(=O)CN1C(=O)C(=O)N(Cc2ccco2)C1=O	.	.	.	i	0.94	-5	98
CC1(C)CC(=O)C=C(C(=O)N2CCCC(CCC(=O)NCc3ccccc3F)C2)O1 (stereo not given)	.	.	.	i	1	-5	100
CC1(C)c2ccccc2N2CC(=O)N(CC(N)=O)C21C (stereo not given)	-6	90	-1.8	i	1.1	-12	88
O=C(Cn1ccc2ccccc2c1=O)NCCC(=O)N1CCN(C2CCCCC2)CC1	-110	142	-1.6	i	0.75	4	100
Cc1cnc(NC(=O)CSc2nnc(C)n2N)s1	-14	81	0.5	i	1.1	4	105
Cc1cc(C)n(C(=O)c2nn(C)c(C)c2[N+](=O)[O-])n1	40	119	-3.0	i	0.91	-9	105
CC(NC(=S)Nc1ccc(S(N)(=O)=O)cc1)c1ccc2c(c1)OCO2 (stereo not given)	24	124	-0.3	i	1	-4	98
CCN(c1ccccc1)S(=O)(=O)c1cc(C(=O)Nc2cccc(Cl)c2)ccc1F	34	58	-1.9	i	0.91	-3	110
COC(=O)CCC(=O)OC1(C)C(=O)C=C2C=C(C3CC3)N(Cc3ccco3)C=C2C1=O (stereo not given)	.	.	.	i	1.1	.	100
COc1ccc(C(=O)NCc2nnc(SCC(=O)N3CCCCC3)o2)cc1OC	-29	43	-1.6	i	0.91	11	104
COc1ccc(OCc2nnc(SCC(=O)N(C)Cc3ccccc3)n2N)cc1	.	.	.	i	0.99	0	95
O=[N+]([O-])c1c(NCCCO)cc(SCc2ccco2)c2nonc12	25	122	0.2	i	0.88	4	101
COc1ccc(C2(O)CCN(CC(=O)Nc3nccs3)CC2)c(OC)c1	.	.	-0.7	i	0.82	-6	98
CCCCC(CC)CNC(=O)C(=O)C1C(=O)Nc2ccccc21 (stereo not given)	.	.	.	i	1	1	100
COCCNC(=O)c1onc(CSc2ccccc2C)c1C(=O)O	0	169	-1.5	i	0.82	0	96
CCc1ccc(-c2cc(-c3n[nH]c(=S)n3CC)c3ccccc3n2)cc1	0	70	1.2	i	1	-3	104
CN(C1=NS(=O)(=O)c2ccccc21)c1ccc(OC(=O)c2ccncc2)cc1	20	117	.	i	0.98	-4	103
CCCC(C(=O)Nc1nccs1)c1ccccc1 (stereo not given)	28	200	-3.8	i	0.93	-3	103
Cc1cc(C(=O)CN2C(=O)NC3(CCCCC3)C2=O)c(C)n1-c1ccc2c(c1)OCO2	.	.	-0.2	i	1	0	106
O=C(NCCCN1CCCC1=O)Nc1ccc(Cl)cc1	-36	128	-1.0	i	0.96	-6	.
COc1ccc(S(=O)(=O)N2CC(C(=O)O)Oc3ccc(CC(=O)O)cc32)cc1 (stereo not given)	34	85	-0.5	i	1	0	104
COc1cccc(C2/C(=C(/O)c3ccc(C)cc3)C(=O)C(=O)N2Cc2ccco2)c1 (stereo not given)	.	.	-0.2	i	1.1	-11	97
O=C(c1oc(=O)c2ccccc2c1-c1ccccc1)N1CCOCC1	.	.	-2.7	i	0.95	-31	115
O=C(Cc1ccccc1)Nc1ccccc1Sc1ccccc1	-22	95	-1.4	i	1.1	-4	113
COc1cccc(S(=O)(=O)Nc2ccc(C(=O)N3CCN(C(=O)c4ccco4)CC3)cc2)c1	49	131	0.0	i	0.93	6	110
COc1ccc(NC(=O)CSc2nnc(NC(=O)c3ccco3)s2)cc1	.	.	.	i	0.96	6	100
O=C(O)CC1(CC(=O)Nc2ccc(Cl)cc2C(=O)c2ccccc2)CCCC1	.	.	.	i	0.96	.	85
O=[N+]([O-])c1cccc2ccc(/C=C/c3ccc(Cl)cc3)nc12	.	.	-0.9	i	0.99	-7	105
CSC1=NCCN1CCOc1ccccc1	-18	123	.	i	1	-7	104
CCOC(=O)/C=C/c1cnn(-c2ccccc2)c1	-64	44	-1.6	i	1	-3	99
N=c1n(Cc2ccccc2)c2ccccc2n1CC(O)c1ccccc1 (stereo not given)	-27	77	-1.6	i	0.88	4	101
Cn1c(NC(=O)C2CC2)cc(=O)n(C)c1=O	.	.	-2.8	i	0.85	-9	112
CC(=O)Nc1ccc(/C=C(\C#N)C(N)=O)cc1	.	.	.	i	0.93	.	91
O=C(NCCc1ccccc1)c1ncn[nH]1	36	68	0.0	i	0.96	-1	102
CCCC(=O)N1CCN(c2ccc(NC(=O)c3sc4ccccc4c3Cl)cc2)CC1	-4	89	-2.9	i	1	4	94
Cc1c(Cl)cnc(NC(=O)COC(=O)c2cccc(S(=O)(=O)N3c4ccccc4CC3C)c2)c1Cl (stereo not given)	22	86	-0.8	i	0.94	2	105
Cc1ccc(C(=O)Nc2ccc3c(c2)CCC3)cc1	45	116	.	i	0.99	-3	96
CCN(CC)c1ccc2cc(C(N)=O)/c(=N\NC(=O)c3ccncc3)oc2c1	.	.	.	.	.	7	98
O=Nc1c(O)n(Cc2cccc(C(F)(F)F)c2)c2ccccc12	-35	101	.	i	0.85	-12	103
O=C1NC(=O)c2cc(Br)cc3cccc1c23	.	.	.	i	0.7	-12	94
O=C(Nc1ccc2c(c1)CCC2)c1cccc(S(=O)(=O)Nc2ccccc2Cl)c1	58	80	-1.4	i	1.1	-2	96
Cc1ccc(NC(=O)/C(=C/C=C/c2ccccc2)NC(=O)c2ccccc2)cc1	.	.	-0.1	i	0.95	0	108
CC(=O)N(CN1C(=O)c2ccccc2C1=O)c1ccc2c(c1)oc1ccccc12	.	.	0.3	.	.	-4	107
Cc1ccc(C)c(NC(=S)N(C)C)c1	.	.	.	i	1	.	105

In a second layout: entries from further up
> Cc1ccc(C(=O)Nc2ccc3c(c2)CCC3)cc1
  Insulin prom inh: 45; Insulin prom inh cell count: 116; GALR2 agonist: .; HSV replic up: i; HSV replic up primary fold: 0.99; PKD1 kinase inh: -3; RGS16-Gao HTS: 96

> CCN(CC)c1ccc2cc(C(N)=O)/c(=N\NC(=O)c3ccncc3)oc2c1
  Insulin prom inh: .; Insulin prom inh cell count: .; GALR2 agonist: .; HSV replic up: .; HSV replic up primary fold: .; PKD1 kinase inh: 7; RGS16-Gao HTS: 98

> O=Nc1c(O)n(Cc2cccc(C(F)(F)F)c2)c2ccccc12
  Insulin prom inh: -35; Insulin prom inh cell count: 101; GALR2 agonist: .; HSV replic up: i; HSV replic up primary fold: 0.85; PKD1 kinase inh: -12; RGS16-Gao HTS: 103

> O=C1NC(=O)c2cc(Br)cc3cccc1c23
  Insulin prom inh: .; Insulin prom inh cell count: .; GALR2 agonist: .; HSV replic up: i; HSV replic up primary fold: 0.7; PKD1 kinase inh: -12; RGS16-Gao HTS: 94

Next section:
SMILES	Insulin prom inh	Insulin prom inh cell count	GALR2 agonist	HSV replic up	HSV replic up primary fold	PKD1 kinase inh	RGS16-Gao HTS
S=C(NCCC(c1ccccc1)c1ccccc1)Nc1ccc(Cl)cc1	10	59	-2.2	i	1.1	-2	107
Cn1c(=N)c(S(=O)(=O)c2ccc(F)cc2)cc2c(=O)n3ccccc3nc21	28	105	0.7	i	0.98	-6	103
CCN(CCCNC(=O)CC(C(=O)N1CCc2ccccc21)n1ccnc1)c1ccccc1 (stereo not given)	-100	103	-0.3	i	0.8	4	100
CCCCOC(=O)CSc1nc2c(c(=O)[nH]c(=O)n2C)n1C/C=C(\C)Cl	23	90	-1.0	i	0.64	2	98
Cc1nn(Cc2c(Cl)cccc2Cl)c(Cl)c1/C=N/NC(=O)c1cccnc1	20	123	-0.7	i	0.88	4	104

This is a random part of the collection. Share with any hit: about 1.3%.
